GIV Gai3 FP: inhibitors of GIV GBA-motif binding to rat Galpha-i3 | P08753 | Galpha-i3/FITC-GIV peptide fluorescence polarization, 90 min; active compounds read low; scaled: aluminum fluoride 0%, vehicle 100% | percent of control (FP), % (concentration not given with the values) | 210,000 compounds, 0.42% hits | AID 1224905;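 active = replicate mean at 85% of control or lower, very high polarization wells dropped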;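 note: wells of about 15 µL received 100 nL stock; the first replicate is given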
Target sequence (P08753 whole entry, looked up): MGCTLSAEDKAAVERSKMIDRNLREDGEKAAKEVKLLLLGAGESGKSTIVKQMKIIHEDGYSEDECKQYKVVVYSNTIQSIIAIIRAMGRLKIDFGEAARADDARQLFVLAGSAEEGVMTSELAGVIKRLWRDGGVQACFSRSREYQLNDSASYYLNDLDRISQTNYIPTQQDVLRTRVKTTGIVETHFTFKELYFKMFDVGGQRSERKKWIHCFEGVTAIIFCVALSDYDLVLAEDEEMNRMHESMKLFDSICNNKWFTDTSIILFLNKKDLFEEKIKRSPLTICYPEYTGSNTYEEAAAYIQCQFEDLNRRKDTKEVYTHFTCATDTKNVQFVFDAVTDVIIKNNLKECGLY
HCMV NEC inh: inhibitors of HCMV UL50-UL53 nuclear egress complex interaction; HTRF UL50-UL53 interaction, normalized percent inhibition; inhibition, % (concentration not given with the values); 190,000 compounds, 0.15% hits;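 active = both replicates at 50% or more, plus weaker picks with an unusually low signal ratio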;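 note: stock transfer was 100 nL into about 20 µL; 0% = negative control wells and 100% = wells with untagged competitor protein; inactives centre near -12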
Sa growth inh: inhibitors of Staphylococcus aureus growth at 42 °C; S. aureus RN4220 growth, OD600, 20 h; active compounds read low; relative growth, % (no concentration beside the values); 170,000 compounds, 0.53% hits; AID 720641;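 active = growth at 42 °C up to 50% and 20 or more points under that at 30 °C, or under 10% at both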;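 note: 300 nL library stock went into each well; scaled to the means of positive and negative controls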
Sa growth inh second temp: further read-out of Sa growth inh, marked with its call; relative growth, %; measured here: growth at 30 °C;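 optical density after 20 h as mean of two plates; 100% = untreated growth and lower means inhibition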
Starred values were filed as active, the others as inactive; . = not tested or not shown.

SMILES	GIV Gai3 FP	HCMV NEC inh	Sa growth inh	Sa growth inh second temp
CN(C)CCNC(=O)c1cc2ccccc2oc1=O	106.2	.	106.6	86.4
O=C(COC(=O)/C=C/c1ccco1)Nc1ccc(F)cc1F	.	-47.7	94.0	87.4
Cc1ccccc1N(C)C(=O)c1noc2c1COc1ccccc1-2	97.7	-1.6	102.1	109.9
CCOc1ccccc1N(CC(=O)Nc1ccc(S(=O)(=O)N2CCCCC2)cc1)S(=O)(=O)c1ccccc1	107.7	-7.8	.	.
Cc1ccc(C2CCCN2S(=O)(=O)c2ccc(C)c(C)c2)cc1 (stereo not given)	97.1	-17.7	.	.
COc1ccc(-n2c(C)cc(=O)cc2C)cc1	.	-26.1	93.6	73.7
COc1ccc(-n2nc(C(=O)NCCc3ccc(OC)c(OC)c3)c3c4ccccc4n(C)c3c2=O)cc1	102.4	-28.2	96.8	89.9
C=CCn1c(SCC(=O)Nc2ccccc2C(=O)NC2CCCC2)nnc1-c1ccoc1C	.	10.8	94.4	93.5
CC(C)(C)S(=O)(=O)c1ccc(NCc2ccc3c(c2)OCO3)nn1	101.0	-31.1	.	.
COC(=O)c1c(C)[nH]c(C(=O)N2CCC(CC(=O)NC(C)c3ccccc3)CC2)c1C (stereo not given)	106.7	-19.0	.	.
Cc1ccc(C(=O)N/N=C/c2ccc(O)c(O)c2O)c(C)c1	.	-28.3	48.8	58.6
COc1cccc2cc(C(=O)Nc3ccc(F)c(F)c3)c(=O)oc12	110.4	7.7	101.7	91.7
O=C(NCCCN1CCCC1=O)c1cc2ccccn2n1	114.1	-5.0	.	.
CC(C)n1c(SCC(=O)c2ccc3c(c2)NC(=O)CO3)nc2cc(Cl)ccc2c1=O	.	-28.0	78.2	90.2
Cc1cc(C)cc(NCCC(=O)O)c1	.	12.0	87.9	94.2
CC1=C(C(=O)Nc2ccccn2)C(c2ccc(Cl)cc2)n2nnnc2N1 (stereo not given)	103.7	-11.6	.	.
O=C(O)CCCC(=O)N1CCN(c2nc(-c3ccccc3)c3ccccc3n2)CC1	103.8	-49.2	99.3	96.7
COC(=O)c1nnn(CC(=O)NCc2ccc3c(c2)OCO3)c1C(=O)OC	100.8	-2.4	93.7	85.7
O=C(c1cccc(Cl)c1)N1CCN(c2ncnc3c2c(-c2ccccc2)cn3-c2ccccc2)CC1	98.3	7.5	.	.
Cc1nccc(-c2sc(-c3cccs3)nc2C)n1	105.2	-58.9	85.3	90.1
C=CCN1CC(c2nc3ccccc3n2CC(O)COc2ccc(C)c(C)c2)CC1=O (stereo not given)	105.2	7.5	.	.
CCC(Cc1ccccc1)NC(=O)CN1C(=O)COc2ccc(S(=O)(=O)N3CCCCCC3)cc21 (stereo not given)	108.3	-11.0	85.6	97.2
COC(=O)C1=C(N)OC2=C(C(=O)CC(c3ccccc3)C2)C1c1cccc(Br)c1 (stereo not given)	107.2	0.1	.	.
CCOc1ccc(CCNC(=O)c2cc3c(=O)n(C)c4ccccc4c3n2C)cc1	102.7	-41.0	121.0	89.4
O=C(O)CCCN1C(=O)CNC1=O	102.0	-16.9	75.7	91.9
CCSc1nc(=O)[nH]c2c1CCC2	98.7	-27.8	85.7	89.0
COC(=O)c1ccc(CNC(=O)C2CC2C)cc1 (stereo not given)	.	-1.5	92.8	92.6
CCCCCn1c(SCC(=O)c2ccccc2)nc2cc(C(=O)NCc3ccco3)ccc2c1=O	103.0	-31.1	98.2	81.9
CC(Sc1ccccc1)C(=O)Nc1ccc(Cl)cc1 (stereo not given)	.	1.0	88.6	71.1
CC(=O)Nc1ccc(S(=O)(=O)N2CCC(N3CCN(Cc4ccc(F)cc4)C3=O)CC2)cc1	108.8	-22.5	.	.
COc1ccc(Nc2nc(C)cc(=O)[nH]2)cc1	97.5	-1.3	109.1	99.5
CCCOc1ccc(CNC(=S)NCc2ccc(OC(C)C)cc2)cc1	103.9	.	98.9	79.4
COc1cc(/C=C2\N=C(c3cc([N+](=O)[O-])ccc3Cl)OC2=O)cc(Br)c1OC(C)=O	102.8	-52.4	.	.
CC(C)(c1ccccc1)c1ccc(OCC(=O)NC2CCCC2)cc1	104.9	.	110.8	66.4
S=c1nc(Cc2ccccc2)[nH][nH]1	.	-4.6	80.2	75.3
CN=c1scc(-c2cc(OC)ccc2OC)n1/N=C1\CCc2ccccc21	.	-13.0	102.5	90.5
C=C1Cn2c(nnc2-c2ccc(Cl)cc2)S1	.	-2.5	98.9	83.6
O=C(O)c1cnc(SCc2ccccc2)[nH]c1=O	100.6	-5.4	105.2	97.5
Clc1ccc(-c2nc3ccccc3o2)c(Cl)c1	101.1	-12.5	94.3	84.2
O=C(O)/C=C/C(=O)N1CCN(c2ccc(F)cc2)CC1	.	-11.4	82.1	88.1

15 of the compounds above, comma-delimited.
SMILES,GIV Gai3 FP,HCMV NEC inh,Sa growth inh,Sa growth inh second temp
CCC(Cc1ccccc1)NC(=O)CN1C(=O)COc2ccc(S(=O)(=O)N3CCCCCC3)cc21 (stereo not given),108.3,-11.0,85.6,97.2
COC(=O)C1=C(N)OC2=C(C(=O)CC(c3ccccc3)C2)C1c1cccc(Br)c1 (stereo not given),107.2,0.1,.,.
CCOc1ccc(CCNC(=O)c2cc3c(=O)n(C)c4ccccc4c3n2C)cc1,102.7,-41.0,121.0,89.4
O=C(O)CCCN1C(=O)CNC1=O,102.0,-16.9,75.7,91.9
CCSc1nc(=O)[nH]c2c1CCC2,98.7,-27.8,85.7,89.0
COC(=O)c1ccc(CNC(=O)C2CC2C)cc1 (stereo not given),.,-1.5,92.8,92.6
CCCCCn1c(SCC(=O)c2ccccc2)nc2cc(C(=O)NCc3ccco3)ccc2c1=O,103.0,-31.1,98.2,81.9
CC(Sc1ccccc1)C(=O)Nc1ccc(Cl)cc1 (stereo not given),.,1.0,88.6,71.1
CC(=O)Nc1ccc(S(=O)(=O)N2CCC(N3CCN(Cc4ccc(F)cc4)C3=O)CC2)cc1,108.8,-22.5,.,.
COc1ccc(Nc2nc(C)cc(=O)[nH]2)cc1,97.5,-1.3,109.1,99.5
CCCOc1ccc(CNC(=S)NCc2ccc(OC(C)C)cc2)cc1,103.9,.,98.9,79.4
COc1cc(/C=C2\N=C(c3cc([N+](=O)[O-])ccc3Cl)OC2=O)cc(Br)c1OC(C)=O,102.8,-52.4,.,.
CC(C)(c1ccccc1)c1ccc(OCC(=O)NC2CCCC2)cc1,104.9,.,110.8,66.4
S=c1nc(Cc2ccccc2)[nH][nH]1,.,-4.6,80.2,75.3
CN=c1scc(-c2cc(OC)ccc2OC)n1/N=C1\CCc2ccccc21,.,-13.0,102.5,90.5

(list continues)
SMILES	GIV Gai3 FP	HCMV NEC inh	Sa growth inh	Sa growth inh second temp
O=C(c1ccccc1Cl)n1cnc2ccccc21	106.3	-16.6	87.2	79.0
Cc1c(-c2ccccc2)nc2ccccc2c1C(=O)OCC(=O)N(C)C	.	-29.4	92.0	96.8
O=C1CC(c2cccc(Oc3ccccc3)c2)NC(=O)N1CN1CCN(c2ccccc2)CC1 (stereo not given)	.	-10.6	110.6	87.4
COc1ccc(NC(=O)c2cn(-c3ccccc3)nc2SC)cc1	100.3	-7.1	106.5	101.6
CN(C)S(=O)(=O)c1ccc(S(=O)(=O)N2CCC(O)CC2)cc1	102.9	5.4	99.2	104.0
COc1ccc(OC)c(CNS(=O)(=O)c2cc(-c3onc(C)c3C)ccc2C)c1	100.2	.	114.8	81.4
Cn1nc(C(=O)NCc2ccc(Cl)cc2)c2c1CCN(S(=O)(=O)c1ccccc1)C2	103.5	-1.2	.	.
Cc1ccc2[nH]c(C)c(C(O)CN3CCC(Cc4ccccc4)CC3)c2c1 (stereo not given)	103.8	-18.4	.	.
N/C(Cc1cccc2ccccc12)=N\OC(=O)N1CCOCC1	100.3	-57.0	87.7	60.2
O=C(CN1C(=O)CSc2cccn2-c2ccccc21)NC1CCN(Cc2ccccc2)CC1	106.1	-19.9	.	.
CC(=O)c1ccc(NC(=O)CCc2c(C)nc3c(c2C)c(=O)n(C)c(=O)n3C)cc1	105.5	-37.3	90.4	91.9
O=C(c1cccs1)N1CCCn2c(SCc3ccccc3Cl)nnc21	111.4	30.9	113.4	99.2
NC(=O)c1nn(Cc2ccccc2)c(=O)c2ccccc12	.	5.3	111.4	97.3
O=c1c2ccccc2nc2c3ccccc3c(SCc3ccccc3)nn12	106.4	-12.4	95.4	84.9
COc1ccccc1C1CC(c2ccc(Br)cc2)=NN1C(C)=O (stereo not given)	93.0	-13.8	.	.
CC1(C(=O)NC2CCCCC2)Cn2c(cc3sccc32)C(=O)N1CC1CCCO1 (stereo not given)	103.3	-13.5	.	.
O=C(CSc1nc2ccsc2c(=O)n1CC1CCC(C(=O)O)CC1)c1ccc(F)cc1 (stereo not given)	97.9	4.4	94.8	84.5
CN(C)/N=C/c1ccc(C(=O)NC(=O)C(F)(F)F)o1	.	-28.9	80.2	95.5
COc1cc(NC(=O)C(CC(C)C)NS(=O)(=O)c2ccc3c(c2)CCN3C(C)=O)cc(OC)c1 (stereo not given)	106.6	-23.8	105.3	91.5
O=C(CCS(=O)(=O)c1cccc2nsnc12)NC1CCCC1	101.0	-99.6	89.1	90.8
CS(=O)(=O)CCC(C(=O)n1nnc2ccccc21)N1C(=O)c2ccccc2C1=O (stereo not given)	102.8	.	113.8	83.7
O=C(O)CC(F)(F)CC(=O)O	.	-1.9	119.9	104.7
CCOC(=O)COc1ccc(C2CC(C)=NN2c2ccccc2)cc1 (stereo not given)	108.9	.	100.7	82.6
COc1ccc(OCC(=O)Nc2ccc(C(=O)OCc3cc(=O)n4nc(C)sc4n3)cc2)cc1	107.3	.	102.6	99.4
CCC(=O)NNc1ncnc2ccccc12	.	-30.9	105.6	87.3
N#Cc1ccc(C=Nc2ccc(N)c(Cl)c2)cc1	100.9	-19.1	106.4	98.7
CCC(C(=O)Nc1cc(OC)ccc1OC)n1c(C(=O)c2cccc(F)c2)nc2ccccc21 (stereo not given)	106.4	-30.7	.	.
CCOC(=O)c1[nH]c(C)c(C(=O)OCC(=O)N2CCc3ccccc32)c1C	.	-3.8	92.0	91.2
CC(C)CCn1c(=O)c2ccccc2n2c(CSC(C)c3nc4ccccc4c(=O)[nH]3)nnc12 (stereo not given)	.	-5.4	116.8	102.1
CC(CS(=O)(=O)c1ccc2c(c1)NC(=O)CS2)C(=O)N1CCCCC1 (stereo not given)	97.9	-28.4	85.4	89.3
Cc1[nH]c(=O)c(C#N)c(C)c1CCC(=O)N1CCc2ccccc21	.	-21.7	113.2	85.8
O=C(/C=C/c1ccco1)OCc1c(F)cccc1Cl	.	-24.7	88.5	36.8
COc1ccc(CNC(=O)Cn2c(=O)oc3cc(S(=O)(=O)N4CCCC4)ccc32)cc1	101.9	-3.5	110.2	92.9
O=C(Nc1ccc(Cl)cc1)c1cccnc1OCC(F)(F)F	104.2	4.3	104.7	77.5
Cc1cc(NC(=O)c2ccc3c(c2)S(=O)(=O)c2ccccc2C3=O)no1	.	-62.5	86.6	82.0
CCc1ccccc1NC(=O)CCCSc1nc(-c2ccco2)cc(C(F)(F)F)n1	105.4	-47.6	85.1	97.7
Cc1ccccc1C(=O)Nc1nc2c(s1)CC(C(C)(C)C)CC2 (stereo not given)	96.6	17.4	105.3	90.4
Cc1ccc(N(C(=O)C2CCC(=O)N2)C2(C(=O)NC3CCCCC3)CCCCC2)cc1 (stereo not given)	96.9	-15.3	.	.
Cc1ccccc1NC(=O)CCn1nc(-c2ccccc2)c2ccccc2c1=O	102.1	.	106.3	84.2
CCc1ccc(C2c3c(oc4ccc(F)cc4c3=O)C(=O)N2CCc2ccc(OC)cc2)cc1 (stereo not given)	104.5	-17.1	77.7	91.0
COC(=O)C(C)Sc1nc(-c2ccc(OC)cc2)nc2c1c(=O)n(C)c(=O)n2C (stereo not given)	100.2	3.1	96.4	95.2
CNc1ccccc1C(C)(C)c1cc(C)[nH]n1	.	17.1	95.7	100.3
CC(C)(C)c1ccc(Oc2nc3ccccn3c(=O)c2/C=C(\C#N)c2nc3ccccc3[nH]2)cc1	116.4	-10.3	101.0	103.1
O=c1[nH]c(=S)[nH]cc1S(=O)(=O)c1ccc(Cl)cc1	99.5	-25.2	80.6	81.0
CCOC(=O)C1=C(C)Nc2[nH]c(=O)[nH]c(=O)c2C1c1ccccc1 (stereo not given)	.	-32.1	94.1	92.8
O=C(COc1ccc(Cl)cc1Cl)Nc1cccc2cccnc12	108.5	-12.6	96.3	88.8
COc1ccc(C(CC(=O)NC2CCCC2)N2Cc3ccccc3C2=O)cc1OC (stereo not given)	103.6	-41.2	104.5	85.4
O=C(CSc1nc(=O)n(C2CCS(=O)(=O)C2)c2c1CCC2)c1ccc(Cl)cc1 (stereo not given)	110.0	-13.6	.	.
Cn1nccc1C(N)c1ccccc1 (stereo not given)	98.4	-10.0	91.4	86.5
Cc1ccc(S(=O)(=O)Nc2cc3c(C(=O)OCc4ccccc4)c(C)oc3c3ccccc23)cc1	108.1	-42.4	101.9	84.4
O=C(NCC(F)(F)F)c1cc2ccccc2cc1O	.	-30.3	26.0	13.6
Cc1ccsc1/C=N/N1CCN(c2ccccc2)CC1	.	-8.1	75.8	92.3
Cc1[nH]nc2nc3c(c(-c4cc(C)n(C5CCCC5)c4C)c12)C(=O)CCC3	.	-28.0	92.7	75.4
O=C(CSc1ncnc2nc[nH]c12)NCCc1ccccc1	.	-6.6	88.7	82.5

Compound activity from PubChem.
